# Calb FLC = C. albicans growth inhibition with fluconazole, primary screen, CaCi-2 strain, Alamar Blue fluorescence; C. albicans CaCi-2 (fluconazole-resistant clinical isolate) + fluconazole, 48 h; growth inhibition, % (concentration not given with the values); actives 0.57% (n = 300,000); AID 1979, 2009;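 active = most replicates above 75%; inconclusive = exactly half above 75%; inactive = most below 75%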;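 note: all wells also contain fluconazole at 8 µg/ml as a sub-toxic cotreatment; 0% = median of DMSO wells and 100% = median of geldanamycin control wells; wells of about 8 µL received 7.5 nL stock; the first replicate is given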
# LANA-H2B inh = blockers of LANA interaction with H2A/H2B – biochemical, FP readout, HTS, primary screen. inhibition, % (concentration not given with the values). Protein LANA1 (Human herpesvirus 8 type P (isolate GK18)), Q9QR71. cell-free LANA-H2A/H2B peptide, fluorescence polarization. actives 0.6% (n = 320,000). AID 2629, 2010; in the data active = inhibition mostly above about 10%, no sharp cut-off; inactive = mostly below about 6.7%;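 note: stock transfer was 7.5 nL into about 10 µL; 0% = median of vehicle wells and 100% = median of positive control wells; one replicate is shown; the record names a cut of 25% in any replicate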
# T cruzi repl = inhibitors of intracellular T. cruzi growth, primary screen, luminescence, NIH3T3 host cells | T. cruzi beta-gal in NIH3T3, 90 h | inhibition, % (no concentration beside the values) | actives 1.4% (n = 300,000);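 active = mean inhibition across valid replicates above about 55%, limit read from the data; inconclusive = mean below that limit but half or more replicates reach it; inactive = mean below it, under half of replicates reach it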;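 note: signal also drops with host cell toxicity which is not excluded here; 0% = plate median of DMSO wells and 100% = zero luminescence signal; higher percent means less beta-gal luminescence so fewer parasites; stock transfer was 50 nL into about 50 µL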
# A1 inh = caspase 3/7 activation in MEF A1-2A-BIM cells, primary screen, A1 inhibitor project, cell-based, luminescence, HTS | Caspase-Glo 3/7 luminescence, 3 h; percent of clofoctol response, vehicle zero | actives 0.066% (n = 330,000) | caspase activation, % (no concentration beside the values);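 active = over half of replicate activation scores above 10%, or exactly half above 10 with the replicate mean above 10; inconclusive = replicate mean below 10 yet half the replicates above 10; inactive = over half of replicates below 10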;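 note: wells of about 30 µL received 50 nL stock; many hits fall short of the cut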
# Beta cell apopt = inhibitors of cytokine-induced beta cell apoptosis, primary screen, luminescence. INS-1E cytokine-induced death, ATP luminescence, 48 h; percent of positive-control rescue, neutral wells zero. protection from apoptosis, % (concentration not given with the values). actives 0.8% (n = 300,000). AID 435005, 2010;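 active = all replicates at 75% or more, or half of them and the mean; inconclusive = half reach 75% but not the mean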;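 note: 0% = cytokine-treated negative control wells and 100% = positive control rescue; higher means more ATP so stronger rescue from cytokine killing; wells of about 40 µL received 100 nL stock; the first replicate is given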
# B2AR ag = beta2AR agonists driving receptor internalization, primary screen, cell-based, FAP fluorogen, flow cytometry; actives 0.43% (n = 340,000); response, % (test concentration not listed); Beta-2 adrenergic receptor (Homo sapiens), P07550; Am2.2-beta2AR cells; reference of the scale not given here;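 active = response above a set limit, near 3 SD of response in nonfluorescent compounds, cut at about 42% in these data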;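 note: stock transfer was 100 nL into about 11 µL; a reference agonist was the positive control; negative values mostly stem from fluorescent compounds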
# Target sequence (P07550 whole entry, looked up): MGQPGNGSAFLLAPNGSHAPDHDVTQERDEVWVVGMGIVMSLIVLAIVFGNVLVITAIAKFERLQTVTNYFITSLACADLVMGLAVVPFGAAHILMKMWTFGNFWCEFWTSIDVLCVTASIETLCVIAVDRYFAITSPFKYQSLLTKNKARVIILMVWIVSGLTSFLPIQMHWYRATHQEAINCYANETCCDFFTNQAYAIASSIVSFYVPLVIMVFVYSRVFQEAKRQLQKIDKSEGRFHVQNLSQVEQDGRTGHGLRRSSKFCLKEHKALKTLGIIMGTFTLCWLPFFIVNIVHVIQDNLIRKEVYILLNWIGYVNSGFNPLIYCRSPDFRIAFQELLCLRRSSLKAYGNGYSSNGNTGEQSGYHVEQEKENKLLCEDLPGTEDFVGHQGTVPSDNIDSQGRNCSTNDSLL
# ALR H2O2 inh = inhibitors of human ALR sulfhydryl oxidase, primary screen, biochemical, H2O2 detection, HRP-luminol luminescence, single point; FAD-linked sulfhydryl oxidase ALR (Homo sapiens), P55789; purified ALR, DTT oxidation; inhibition, % (concentration not given with the values); actives 3.8% (n = 290,000); AID 485317, 2010;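 active = mean and each replicate at 75% or more; inconclusive = only one of the two met; inactive = neither met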;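 note: stock transfer was 7.5 nL into about 7.5 µL; 0% = neutral wells and 100% = wells with inactivated enzyme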
# Target sequence (P55789 whole entry, looked up): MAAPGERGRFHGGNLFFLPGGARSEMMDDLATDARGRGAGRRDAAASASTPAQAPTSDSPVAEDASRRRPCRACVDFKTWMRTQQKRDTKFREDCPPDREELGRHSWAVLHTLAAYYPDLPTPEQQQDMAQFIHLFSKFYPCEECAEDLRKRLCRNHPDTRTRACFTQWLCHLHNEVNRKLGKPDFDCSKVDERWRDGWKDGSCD
# rRNA inh HTS = reduced GFP signal of wild-type E. coli, primary screen, bacterial rRNA inhibitor project, GFP/RFP fluorescence, OD600, single point | E. coli WT GFP vs humanized-ribosome RFP mutants, 24 h; stronger effect = lower value; DMSO median 0, no signal -100 | GFP signal change (wild-type ribosome), % (concentration not given with the values) | actives 1.6% (n = 350,000) | AID 720706, 2013;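 active = significant combined selectivity score with lowered wild-type GFP, culture density cut under 30%, mutant RFP and density less affected; inactive = any of these conditions unmet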; note: one replicate is shown; some compounds called inactive have numbers as strong as hits
# rRNA inh HTS OD600 = further read-out of rRNA inh HTS, marked with its call; OD600 change, %; measured here: OD600 growth;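 optical density of the mix in the first replicate; 0 = DMSO median and -100 = no signal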
# rRNA inh HTS RFP = second read-out of rRNA inh HTS, no call of its own (marks repeat the call); RFP signal change, %; measured here: RFP humanized mutant strains;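 first replicate; 0 = DMSO median and -100 = no signal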
# * marks the source's active call; other numbers are inactive results; ? = inconclusive; . = no result given. Not all compounds are listed; count on the stated rates, not on these rows.
# The line under a structure holds: rRNA inh HTS RFP	Beta cell apopt	A1 inh	rRNA inh HTS OD600	T cruzi repl	rRNA inh HTS	ALR H2O2 inh	B2AR ag	Calb FLC	LANA-H2B inh
> COc1ccc(OCCC(=O)Nc2ccccc2)cc1
→ 1.3	-3	-0.5	-2	-14	0	-7	-1	-2	-0.7
> C=CCc1cccc(/C=N/NC(=O)CCC(=O)Nc2ccc(C)cc2)c1O
→ .	90*	0.8	.	41	.	3	-7	-22	-1.6
> COc1ccccc1C1CC(c2ccco2)=NN1c1ccccc1 (stereo unspecified)
→ -11	.	-0.2	2	-8	-1	3	9	-18	2.4
> CCC(C)(C)NC(=S)Nc1ccccc1C
→ -0.4	1	-0.1	-6	5	-2	-10	-2	-7	-5.9
> CN(C)c1ccc(C(=S)NC2CCCCC2)cc1
→ -0.7	.	0.2	3	8	9	6	2	-16	3.9
> COc1ccccc1NC(=O)Cn1nc(C)n2cccc2c1=O
→ 1.5	.	0.8	6	-5	7	-1	13	-4	0.9
> N#C/C(=C\c1cc([N+](=O)[O-])c(N2CCCCC2)cc1N1CCCCC1)c1nn(-c2ccccc2)c(N)c1C#N
→ .	10	0.1	.	.	.	-10	14	-3	1.6
> O=c1nc(SCc2cccc(C(F)(F)F)c2)nc2ccccn12
→ -9.5	-6	0.4	-11	-6	-17	-4	0	-29	17*
> O=C(Nc1ccc(N2CCCC2)cc1)c1ccc(Br)cc1
→ -1.3	8	1.2	14	8	-3	-4	8	-17	-2.1
> COc1ccc2nc(N/C(N)=N/C(=S)Nc3c(C)cccc3C)nc(C)c2c1
→ 12	0	-0.4	12	37	19	-1	-5	?	4.1
> CCOC(=O)CCCNC(=O)COC(=O)[C@@H]1CCCN1S(=O)(=O)c1ccc(Cl)cc1
→ .	-3	1.3	.	-1	.	-5	15	0	2.8
> O=S(=O)(c1ccc(Oc2ncnc3scc(-c4ccccc4)c23)cc1)N1CCOCC1
→ .	.	-0.4	.	14	.	-4	14	?	-5.5
> COc1ccc2nc(Nc3ccc4c(c3)OCO4)sc2c1
→ .	10	-0.8	.	4	.	.	7	-10	4.1
> N#Cc1ccc(OCC(=O)Nc2cc(S(=O)(=O)N3CCCCC3)ccc2N2CCCCC2)cc1
→ .	1	-0.2	.	-3	.	-6	-3	3	0.1
> COc1ccc(NC(=O)/C=C/c2ccc3c(c2)OCO3)cc1
→ -2.0	0	-6.4	-1	-3	-4	-1	4	4	8.6
> CC(NC(=O)C1CCN(S(=O)(=O)c2cccc3cccnc23)CC1)c1ccccc1 (stereo unspecified)
→ 1.3	3	0.8	-6	-6	-11	-10	-7	0	4.8
> O=[N+]([O-])c1ccc2nc(SCc3ccccc3Cl)sc2c1
→ .	4	-0.6	.	3	.	-8	1	-9	-0.5
> Fc1ccc(-c2csc3ncnc(N4CCN(Cc5ccccc5)CC4)c23)cc1
→ 0.5*	39	-0.4	-15*	0	-23*	7	6	1	-2.4
> O=C(Nc1ccc(Oc2ccccc2)nc1)C1CCCCN1Cc1ccc(OCCO)cc1 (stereo unspecified)
→ 2.2	-2	0.3	10	-11	3	-6	-5	-4	-1.4
> CSc1cccc(NC(=O)C2CC(=O)N(Cc3ccccc3)C2)c1 (stereo unspecified)
→ 2.2	-2	0.2	-2	2	-6	-10	-9	0	5.2
> O=C(COC(=O)CC1CCCC1)Nc1ccccc1[N+](=O)[O-]
→ -2.3	-1	0.0	-1	.	-3	.	7	.	-3.2
> NC(=O)CCS(=O)(=O)CCN1CCCCC1
→ .	-6	-0.3	.	-4	.	-10	-6	-10	0.8
> COc1ccc(C2C(=O)N(C3CCCCC3)CC(=O)N2C2CCCCC2)cc1 (stereo unspecified)
→ -17	9	0.2	-34	14	-17	-17	-5	-7	-3.6
> Cc1cc(N2CCCC2)nc2c(C)cccc12
→ -8.7	-7	1.7	10	-11	11	2	38	-7	-1.4
> CCc1ccc2oc(C(=O)NC3CCS(=O)(=O)C3)cc(=O)c2c1 (stereo unspecified)
→ -3.4	.	.	1	-6	-4	-13	5	15	.
> O=c1[nH]c(C2CCN(S(=O)(=O)c3ccccc3F)CC2)nc2c1nnn2Cc1ccc(F)cc1
→ 19	2	-0.4	-50	0	-21	-5	3	12	-0.1
> CCOc1ccc(NC(=O)Cn2nnc(-c3ccccc3F)n2)cc1
→ .	-11	-0.7	.	8	.	-14	-8	-13	0.7
> COCCn1cnc2c(c1=O)c1nc3ccccc3nc1n2/N=C/c1cccc(OC)c1
→ -2.0	45	-0.6	5	26	11	.	4	23	0.1
> Brc1cccc(CN2CCCCCCC2)c1
→ .	-8	0.4	.	3	.	-5	3	-7	-2.5
> O=S1(=O)CCC(n2nccc2-c2ccccc2)C1 (stereo unspecified)
→ 0.8	-6	0.2	-1	-8	5	-3	1	-10	4.8
> CCOc1ccc(NC(=O)CSc2nc(O)c(C)c(=O)n2-c2ccc(F)cc2)cc1
→ 0.1	-3	1.2	-1	-11	-2	100*	11	0	2.4
> CCOC1(/N=C(\C)NS(=O)(=O)c2ccc(Cl)cc2)C(C)=CC(=O)C=C1C
→ 1.4	6	0.9	-15	0	-1	.	1	43	4.2
> N#Cc1cccc2c1-c1ccccc1/C2=N/NC(N)=S
→ .	.	1.0	.	13	.	.	12	-9	0.4
> Cc1csc(NC(=O)CCn2c(=O)oc3ccc(Cl)cc32)n1
→ -1.7	.	2.1	-2	6	1	-4	0	0	0.6
> COc1ccnc(CN(C)C(=O)C2CCC(=O)N(Cc3cccc(C(F)(F)F)c3)C2)c1 (stereo unspecified)
→ 0.5	2	-0.1	8	5	1	4	2	9	-1.5
> Cc1nn(Cc2cccc(C(=O)NN)c2)c(C)c1Cl
→ 0.6	-6	0.0	-32	-2	-26	97*	-2	3	0.3
> O=C1CCCC(=O)C1C1c2ccccc2CCN1C(=O)CCl (stereo unspecified)
→ -0.5	-1	0.6	16	3	13	-1	-1	4	-3.4
> O=C(NCCc1ccccc1)C1CC(=O)N(c2ccc3c(c2)OCCO3)C1 (stereo unspecified)
→ -0.5	5	0.4	7	-4	8	.	0	4	0.9
> COCCCNc1nc(=S)[nH]c2cc(OC)c(OC)cc12
→ .	-8	0.0	.	-3	.	-6	6	7	5.0
> O=C(Nc1ccccc1F)Nc1cccc2ccc(O)cc12
→ 9.3	3	-1.6	-23	-5	-4	74	7	5	2.8
> CC1CCN(C(CNS(=O)(=O)c2ccccc2)c2ccccc2)CC1 (stereo unspecified)
→ .	-6	-1.1	.	.	.	0	3	.	-8.7
> COc1ccc(CCN2CCCC(CN(C)Cc3cc(Cl)c(O)c(OC)c3)C2)cc1 (stereo unspecified)
→ -0.2	-8	0.5	5	11	3	6	-1	-2	5.2
> COc1cccc(CNc2nnnn2C)c1
→ -0.7	-7	-0.4	13	-2	11	-6	-1	6	7.3
> CO/N=C(\Cn1ncc(N2CCCC2)c(Br)c1=O)c1ccc(Cl)cc1
→ .	-12	-0.3	.	3	.	1	-15	-7	-1.0
> CC(Oc1ccccc1F)C(=O)/C=C/N(C)C (stereo unspecified)
→ -4.9	-2	1.8	5	-2	2	6	-5	1	4.2
> CCOCCCNC(=O)c1ccccc1OC1CCN(S(C)(=O)=O)CC1
→ 0.1	-1	1.7	4	1	12	-2	-4	0	-0.4
> CC(C)CN(C1CCS(=O)(=O)C1)S(=O)(=O)c1ccc(C(C)C)cc1 (stereo unspecified)
→ 1.7	-5	0.9	7	-3	7	0	2	-3	1.3
> Cc1ccc(NC(=O)CNCc2cccs2)c(Br)c1
→ -3.3*	10	0.6	-19*	4	-27*	0	5	5	-2.5
> CC(=O)N1CCc2cc(S(=O)(=O)CCC(=O)N3CCN(c4ccccn4)CC3)ccc21
→ .	-7	-0.2	.	-3	.	-2	-3	-2	0.9
> C=CCN(c1ccccc1OC)S(=O)(=O)c1cccc(C(=O)NC2=NCCS2)c1
→ 2.6	-1	-0.9	-23	.	-22	.	-2	.	3.0
> CC(=O)Nc1ccc(NCC(=O)c2ccccc2)cc1
→ 0.4	-3	-4.4	4	-5	7	65	-9	-5	0.5
> C=CCC1(O)C(=O)Nc2ccccc21 (stereo unspecified)
→ .	-1	0.8	.	-1	.	-4	2	2	1.1
> CN(C)c1nc(N)nc(CSc2nnnn2C)n1
→ .	-6	0.1	.	-6	.	-2	-1	3	-4.9
> Cc1cc(C)n(C(=O)c2cccc(S(=O)(=O)N3CCCCC3)c2)n1
→ -1.8	-9	1.2	-1	4	1	0	12	-10	11
> Cc1ccc(-c2csc(N3CCN(CCCn4c(-c5ccncc5)nc5ccccc54)CC3)n2)cc1
→ 15	.	0.7	-2	48	7	7	13	-3	-2.9
> COc1ccccc1NC(=O)/C=C\c1ccco1
→ 8.5	-7	-3.1	9	-19	9	64	2	-5	-2.2
> COc1ccc(C(F)(F)F)cc1N/C=C/c1nnnn1-c1ccc2ccccc2c1
→ 5.8	5	-0.3	15	-2	21	1	11	-9	7.1
> COc1ccc(CNC(=O)c2ccc(Br)o2)cc1
→ -0.7	1	0.4	-42	-14	-27	2	-2	1	1.2
> COc1ccc(C)cc1NC(=O)CN(C)S(=O)(=O)c1cnc[nH]1
→ -1.1	-2	0.2	-1	-2	5	.	4	-11	3.9
> C#Cc1cccc(NC(=O)CSc2nnc(-c3ccc(C(F)(F)F)cn3)o2)c1
→ 1.7	-2	1.1	9	24	4	1	-5	-1	-8.4

# (listing goes on)
# The line under a structure holds: rRNA inh HTS RFP	Beta cell apopt	A1 inh	rRNA inh HTS OD600	T cruzi repl	rRNA inh HTS	ALR H2O2 inh	B2AR ag	Calb FLC	LANA-H2B inh
> CCN1CCCC1CNC(=O)Cn1ncc2c(=O)oc3ccc(C)cc3c21 (stereo unspecified)
→ 3.0	-3	1.5	6	2	5	20	-14	-2	8.2
> COCCNC(=O)C(OC(=O)c1ccco1)c1ccccc1F (stereo unspecified)
→ -1.0	-5	2.2	3	-6	1	-17	1	-1	-1.8
> CCOCCc1nnc(NC(=O)CSc2ccccc2)s1
→ .	-3	0.6	.	10	.	-7	-5	-4	1.7
> COC(=O)CCCC(=O)N1CCCC(CNS(=O)(=O)c2ccc(OC)cc2)C1 (stereo unspecified)
→ -2.9	-4	-0.2	4	-4	4	-10	8	-6	-0.3
> O=C(O)C1C2C=CC(C2)C1C(=O)N1CCc2ccccc21 (stereo unspecified)
→ .	4	2.2	.	-10	.	.	3	-9	-1.1
> CC(C)(C)N(Cc1nc(-c2ccccc2)no1)C(=O)c1ccc2c(c1)OCO2
→ 2.5	1	1.1	-19	4	-6	-2	-5	-24	1.4
